Screens deposited in PubChem by several laboratories.
YopH PTP inh = blocks Yersinia enterocolitica YopH tyrosine phosphatase. inhibition, %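 (about 10 µM by stock and volumes)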. hit rate 0.16% among 140,000. fluorescence Ex485/Em525;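 active = inhibition of 50% or more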;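 also: controls were vehicle for no effect and minimum signal wells for full effect; inactives centre near -20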
Mtb growth = M. tuberculosis H37Rv growth inhibitors, H37Rv strain (AID 1626); M. tuberculosis H37Rv growth inhibition; higher % means a stronger effect; hit rate 0.95% among 220,000; inhibition, % at 10 µM; hits with a dose series show IC50 in µM;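 active = confirmed in a dose series; inconclusive = inhibition above 80% but not taken into the dose series; inactive = below 80% or under 30% at every dose of the series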;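 also: bacteria incubated seven days before Alamar blue readout; 0% = bacteria only wells and 100% = bacteria with antibiotic wells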
Mtb betalactam = beta-lactam sensitization of Mtb H37Rv; M. tuberculosis H37Rv growth with meropenem, percent inhibition; hits of this screen are not shown here; inhibition, % at 25 µM; hit rate 0.27% among 330,000;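 active = about 74% or more and at least 40 points above the plate without the antibiotic, then above 30% in a dose series; inconclusive = first-round hits that could not be retested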;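 also: growth measured after seven days incubation then overnight dye step; 0% = bacteria only wells and 100% = bacteria with antibiotic; twin plates without the antibiotic show which effects depend on it; some results filed as inactive read as strong as hits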
Arbovirus anti = blocks arbovirus infection; arbovirus infection cell-based antiviral screen; inhibition, % at 10 µM; hit rate 0.37% among 200,000; AID 1251;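 active = inhibition from about 30%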;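 also: bluetongue infection of BSR cells; cell survival read as ATP light after 72 h; 0% = infected wells without compound and 100% = uninfected wells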
RecA intein inh = inhibitors of M. tuberculosis RecA intein splicing; inhibition, %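 (about 9 µM by stock and volumes)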; P9WHJ3; hit rate 0.75% among 290,000; cell-free RecA intein splicing, fluorescence; in the data active = inhibition above about 30%; inconclusive = no clear call, values can overlap the other calls;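 also: 0% = vehicle wells and 100% = reference inhibitor control wells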
Target sequence (P9WHJ3 whole entry, looked up): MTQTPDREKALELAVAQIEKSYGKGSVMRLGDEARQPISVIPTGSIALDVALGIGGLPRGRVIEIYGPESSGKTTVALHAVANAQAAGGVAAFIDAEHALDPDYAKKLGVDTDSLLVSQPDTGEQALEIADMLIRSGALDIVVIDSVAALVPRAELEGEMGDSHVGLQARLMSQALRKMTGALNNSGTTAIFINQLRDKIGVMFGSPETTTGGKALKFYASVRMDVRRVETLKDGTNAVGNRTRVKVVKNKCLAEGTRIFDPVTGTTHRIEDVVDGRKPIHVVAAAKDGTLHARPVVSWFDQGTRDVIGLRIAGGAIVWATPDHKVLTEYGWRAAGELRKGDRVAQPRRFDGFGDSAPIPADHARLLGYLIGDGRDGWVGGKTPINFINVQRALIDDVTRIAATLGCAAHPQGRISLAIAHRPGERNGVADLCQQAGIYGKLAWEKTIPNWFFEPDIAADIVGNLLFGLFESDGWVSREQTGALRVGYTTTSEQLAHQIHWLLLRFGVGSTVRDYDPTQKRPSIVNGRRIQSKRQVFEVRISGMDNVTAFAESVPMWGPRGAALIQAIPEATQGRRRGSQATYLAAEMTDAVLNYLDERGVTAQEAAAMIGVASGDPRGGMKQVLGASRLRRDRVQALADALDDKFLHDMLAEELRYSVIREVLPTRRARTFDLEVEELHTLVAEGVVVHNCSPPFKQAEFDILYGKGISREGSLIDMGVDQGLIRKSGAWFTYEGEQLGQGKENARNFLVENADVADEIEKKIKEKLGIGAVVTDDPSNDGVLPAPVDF
Arbovirus anti repeat = further read-out of Arbovirus anti, marked with its call; inhibition, %; measured here: 10K subset replicate screen; many hits read low in the repeat;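 first of two repeat runs on a subset; 0% = infected and 100% = uninfected wells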
The depositor's hits bear a star; ? = inconclusive; nt = no result given; & = joins results of further samples. A portion of the library. The share of hits here may be higher or lower than overall.

Start of the listing, in advance (6 entries):
SMILES	YopH PTP inh	Mtb growth	Mtb betalactam	Arbovirus anti	RecA intein inh	others
CN(C)CC(C)(C)CN=Cc1c(O)[nH]c2ccccc12	nt	1%	-8	nt	0.6
COC(=O)c1nnn(CC(=O)NC(=O)Nc2cccc(Cl)c2C)c1C(=O)OC	nt	3%	-4	1	-0.9
Oc1ccc(-n2nnnc2SCc2ccccc2Br)cc1	nt	nt	7	nt	12
O=C(CSCc1cccs1)N1CCCC1	-24	-10%	-2	5	0.6
CC(=O)c1cnc2c(-c3ccc(Cl)cc3)c(C)nn2c1C	-124	3%	2	-6	-4.1
O=C(Nc1nc(-c2ccc(F)cc2)cs1)c1cccc(N2C(=O)CCC2=O)c1	nt	nt	-5	nt	-0.2

The list itself, from the first entry:
SMILES	YopH PTP inh	Mtb growth	Mtb betalactam	Arbovirus anti	RecA intein inh	others
CN(C)CC(C)(C)CN=Cc1c(O)[nH]c2ccccc12	nt	1%	-8	nt	0.6
COC(=O)c1nnn(CC(=O)NC(=O)Nc2cccc(Cl)c2C)c1C(=O)OC	nt	3%	-4	1	-0.9
Oc1ccc(-n2nnnc2SCc2ccccc2Br)cc1	nt	nt	7	nt	12
O=C(CSCc1cccs1)N1CCCC1	-24	-10%	-2	5	0.6
CC(=O)c1cnc2c(-c3ccc(Cl)cc3)c(C)nn2c1C	-124	3%	2	-6	-4.1
O=C(Nc1nc(-c2ccc(F)cc2)cs1)c1cccc(N2C(=O)CCC2=O)c1	nt	nt	-5	nt	-0.2
CCN(CC)C(=O)CSc1nc2cc3c(cc2c(=O)n1Cc1ccc(OC)cc1)OCO3	nt	-3%	8	-3	1.0
Cc1cc(C)c2c(n1)SCC(=O)N2CC(=O)Nc1ccc(Br)c(C)c1	nt	nt	84	nt	4.3
COc1ccc(NC(=O)c2ccc(-n3cncn3)c([N+](=O)[O-])c2)cc1	nt	3%	-5	1	-12
O=C(O)CSc1nnc(-c2cccc(S(=O)(=O)N3CCOCC3)c2)n1-c1cccc(Cl)c1	nt	2%	-9	nt	-0.5
Cc1ccc(CN2C(=O)C(CC(C)C)Nc3ncnc(N4CCN(c5ccccn5)CC4)c32)cc1 (stereo not drawn)	nt	nt	-4	nt	13
Cc1ccccc1N=C(NOCc1ccc(Cl)cc1Cl)c1nonc1N	-5	13%	11	-34	11
COc1ccc(S(=O)(=O)Nc2c(C(=O)O)[nH]c3ccc(OC)cc23)cc1	nt	nt	-7	nt	-2.6
Cc1ccc2nc(NCc3ccccc3)c(C#N)cc2c1	nt	7%	2	nt	-12
Cc1ccc(-n2nnnc2SCC(=O)NC(C(=O)O)(c2ccccc2)c2ccccc2)cc1C	nt	3%	3	2	5.7
O=C(CC1C(=O)N(Cc2ccccc2)C(=S)N1CCN1CCOCC1)Nc1ccc(F)cc1 (stereo not drawn)	nt	-4%	-9	-20	5.8
Cc1ccccc1CN1CCN(CC(=O)NC(C)c2ccccc2)CC1 (stereo not drawn)	nt	nt	-5	nt	1.1
O=C(O)c1ccc(N2CCOCC2)c(N2C(=O)C3C4C=CC(C4)C3C2=O)c1 (stereo not drawn)	nt	-3%	-1	8	0.2
O=C(Nc1ccccc1C(=O)O)c1ccc(NC(=O)C2CCCCC2)cc1	nt	nt	7	nt	0.1
COc1ccccc1CNC(=O)C1CC2Cn3c(nc4cc(Cl)c(Cl)cc43)C2N1C (stereo not drawn)	nt	0%	12	nt	3.9
CC1(c2ccccc2)CC2CC(c3ccccc3)N1O2 (stereo not drawn)	8	-4%	-3	3	0.2
O=C(COC(=O)c1cccnc1Cl)NCCC1=CCCCC1	nt	-2%	-5	0	-5.5
COc1cc(OC)c(NC(=S)NCc2ccccc2)cc1Cl	nt	-6%	-7	2	-4.0
O=c1cc(NS(=O)(=O)c2ccccc2)nc(SCc2ccc(Cl)cc2)[nH]1	-22	-2%	0	-13	nt
COc1ccc(C2=NOC(C(=O)N3CCN(C(=O)c4ccco4)CC3)C2)cc1OC (stereo not drawn)	nt	nt	-7	nt	0.1
Cc1cc(NC(=O)CCC(=O)N(CC(=O)NCC2CCCO2)c2ccccc2C)no1 (stereo not drawn)	-20	7%	-8	4	-1.0
CCN(CC)S(=O)(=O)c1ccc(C)c(NC(=O)COc2ccc(Br)cc2Cl)c1	-2	2%	-1	19	1.5
CCOC(=O)[C@@H]1[C@H]2COc3ccccc3[C@@H]2N2C(=O)N(c3cccc(C)c3)C(=O)[C@]12C	nt	nt	-9	nt	2.2
CCOC(=O)c1[nH]c(C)c(CCC(=O)O)c1C	0&-19	-6%&-2%	?	12&8	0.6&-1.0
COc1ccc(C(=O)NNC(=O)c2ccncc2)cc1	-33	52%	0	-4	-3.7
CC1C2C(c3ccccc3)N(C)C(=O)N(C)C2N(C)C(=O)N1C (stereo not drawn)	-24	6%	-11	3	6.8
CCn1nc(C)cc1C(=O)N1CCCC(N2CCN(c3ccccc3OC)CC2)C1 (stereo not drawn)	nt	nt	2	nt	1.8
Cc1cc(C(=O)CN2C(=O)NC3(CCCCC3)C2=O)c(C)n1C	nt	2%	18	1	-0.2
NC1=NC[C@H](CC2CCCCC2)N1CCc1cc(C(F)(F)F)cc(C(F)(F)F)c1	nt	8.6µM*	100	nt	9.9
O=C(N=Nc1c(O)[nH]c(=O)[nH]c1=O)C1COc2cc3ccccc3cc2O1 (stereo not drawn)	nt	-10%	-9	-4	3.5
CC(C)N(C(=O)C[n+]1ccsc1N)c1ccccc1	nt	-1%	1	4	-1.3
CCN(CC)c1ccc(NC(=O)c2cccc(F)c2)c(C)c1	2	-6%	1	-21	-2.8
NS(=O)(=O)c1ccc(CNC(=O)CCSCCC(=O)NCc2ccc(S(N)(=O)=O)cc2)cc1	nt	-3%	-2	17	-0.4
CC1CC2=C(C(=O)O1)C(C)Nc1ccccc1N2 (stereo not drawn)	-15	3%	-1	-11	-1.4
O=C(Nc1c2c(nn1-c1ccc([N+](=O)[O-])cc1)CS(=O)(=O)C2)c1cccs1	nt	nt	3	nt	1.0
Cc1csc(=O)n1CCC(=O)OCC(=O)NCc1ccc(F)cc1	nt	nt	-9	nt	-1.4
CN(CC(=O)Nc1ccccc1Cl)CC(=O)Nc1ccccc1[N+](=O)[O-]	nt	6%	4	16	0.0
O=C(O)CCC(=O)Nc1cccc(C(=O)Nc2cccc(Cl)c2)c1	-31	-9%	1	0	0.3
Cc1ccc(Cn2nnnc2CN2CCC(c3nc4ccc(Cl)cc4[nH]3)CC2)cc1	-31	80%	91	-27	4.4
CCN(C(=O)COc1ccccc1)C1CCCCC1	nt	5%	0	3	-0.9
COc1cccc(C2NC(=O)NC(C)=C2C(=O)OCC2CCCCC2)c1 (stereo not drawn)	nt	nt	0	nt	3.0
Cc1cccc(COCC(Cc2ccccc2)N2CCN(C(=O)c3cccc(C)c3)CCC2=O)c1 (stereo not drawn)	-6	2%	-8	-2	2.5
O=S(=O)(NCCC1=CCCCC1)c1ccc(F)cc1	nt	nt	?	nt	3.2
COc1cc2c(cc1OC)C1(CCCCC1)CN(C)C2	nt	-2%	-2	nt	-3.0
CCOC(=O)c1c(-c2ccccc2)csc1NC(=O)c1cccc(N2C(=O)CCC2=O)c1	6	-2%	-2	11	1.0
COC(=O)[C@H](Cc1ccccc1)NC(=O)NCCC1=CCCCC1	2	1%	3	8	-1.2
Cc1cc(F)ccc1NCc1ccccc1[N+](=O)[O-]	nt	4%	3	-18	nt
COc1ccc(/C=C(\NC(=O)c2ccccc2)C(=O)NCCN2CCOCC2)cc1	nt	nt	1	nt	0.0
COc1ccc(/C=C(/NC(=O)c2ccco2)C(=O)Nc2ccc(C(=O)O)cc2)cc1	nt	nt	-1	nt	4.7
O=C(Nc1nccs1)C1CCN(S(=O)(=O)c2cnc[nH]2)CC1	17	-10%	5	3	1.3
CC(C)N(C(=O)CO/N=C/c1cccc([N+](=O)[O-])c1)C(C)C	nt	-6%	-6	6	1.7
NS(=O)(=O)c1ccc(CCNC(=O)[C@@H]2CCCN2S(=O)(=O)c2ccccc2F)cc1	3	-9%	1	8	3.7
O=C(NCCc1cccnc1)c1cc(COc2ccc(F)cc2Cl)on1	nt	nt	4	nt	-2.1
Nn1c(SCc2ccccc2F)nnc1-c1ccncc1	nt	2%	-4	nt	0.3
Cc1c(S(=O)(=O)NC2CCCCCC2)c(=O)n(C)c(=O)n1C	nt	nt	-10	nt	-1.6

Grouped by structure, those above with a furan ring, fused or not
SMILES	YopH PTP inh	Mtb growth	Mtb betalactam	Arbovirus anti	RecA intein inh	others
COc1ccc(C2=NOC(C(=O)N3CCN(C(=O)c4ccco4)CC3)C2)cc1OC (stereo not drawn)	nt	nt	-7	nt	0.1
COc1ccc(/C=C(/NC(=O)c2ccco2)C(=O)Nc2ccc(C(=O)O)cc2)cc1	nt	nt	-1	nt	4.7

(further entries)
SMILES	YopH PTP inh	Mtb growth	Mtb betalactam	Arbovirus anti	RecA intein inh	others
O=C(O)c1ccc(Nc2ncc([N+](=O)[O-])cc2[N+](=O)[O-])cc1	nt	-11%	4	-4	4.5
CCC(C)NS(=O)(=O)c1ccc(S(=O)(=O)N(CC(=O)Nc2ccccc2)CC2CCCO2)cc1 (stereo not drawn)	-13	-3%	-4	0	1.2
COc1ccc(C2=NOC3(CC(=O)N(c4ccc(C)cc4)C3=O)C2)c(OC)c1 (stereo not drawn)	-1	-3%	6	1	-1.0
Cc1cccc(OCC(=O)NCC(c2cccs2)N2CCOCC2)c1 (stereo not drawn)	nt	nt	-5	nt	1.5
CC(C)(C)n1nc2c(c1NC(=O)Cc1ccc(Cl)cc1)CS(=O)(=O)C2	nt	nt	1	nt	-3.7
CC1CC(C)CN(S(=O)(=O)N2CCC(C(=O)NCCC3=CCCCC3)CC2)C1 (stereo not drawn)	nt	1%	6	0	0.2
O=C(Cn1nnc2ccccc21)Nc1ccc([N+](=O)[O-])cc1	nt	2%	1	nt	-14
COc1ccccc1CNC(=O)c1ccc2c(=O)n(CC3CCCO3)c(=S)[nH]c2c1 (stereo not drawn)	nt	nt	8	nt	0.7
O=c1c(Cl)c(N2CCNCC2)cnn1C12CC3CC(CC(C3)C1)C2	nt	1%	1	-5	-1.2
COc1ccc(-c2ccnc(SCC(=O)N3CCN(c4ccccc4)CC3)n2)cc1	nt	-4%	-2	nt	1.2
COc1ccc(-c2nc(N)n(C(=O)c3ccc(C)cc3)n2)cc1	-8	4%	6	3	1.9
COc1cc(NC(=O)CCn2c(=O)[nH]c3ccsc3c2=O)cc(OC)c1	-5	-12%	-1	-1	1.0
Cc1cc(N(CC(=O)NC2CC2)S(C)(=O)=O)ccc1Br	-9	4%	-2	-3	0.0
CC(=O)NC1=NC(=O)C(C)S1 (stereo not drawn)	14	-5%	-11	14	-1.1
CCN(CC)CCN1CCn2c3c(c4cc(C)ccc42)CCCC31 (stereo not drawn)	4	8%	3	-35	-0.7
COC(=O)c1cc(OC)c(OC)cc1NC(=O)c1ccc(C)o1	-36	0%	63	-2	-6.7
COc1ccc(S(=O)(=O)NCCSCc2ccco2)cc1	-39	1%	-5	1	1.9
CCCCCCSc1ccc(-c2nc3ccc(C)cn3c2NC2CCCCC2)cc1	nt	nt	-2	nt	3.2
Fc1cccc(Cn2cc(C(=S)N3CCOCC3)c3ccccc32)c1	nt	-20%	5	13	6.3
Cc1ccccc1NS(=O)(=O)c1ccc(C(=O)OCC(=O)NCC(C)C)cc1	nt	10%	-5	-1	4.1
COc1ccc(NC(=O)Cn2ncc(Cl)c(Cl)c2=O)cc1S(=O)(=O)N1CCOCC1	-14	5%	-5	-34	43*
COc1cccc(C(C(=O)NC2CCCC2)N(C(=O)c2ccco2)c2ccc(-n3cnnn3)c(C)c2)c1OC (stereo not drawn)	nt	-6%	-4	3	-0.1
COc1cccc(CN(CC(=O)NC2CCCC2)C(=O)Cn2nnc(-c3cccs3)n2)c1	-13	0%	10	1	4.4
O=C(N/N=C/c1cccc(OCC(=O)N2CCCC2)c1)C(=O)Nc1ccccc1F	-29	?	90	-6	-1.6
Cc1ccc2c(c1)c(C)c(C)n2CC(O)CN1CCCCC1C (stereo not drawn)	nt	5%	-2	13	-1.0	Arbovirus anti repeat=7
Cc1ccc(C(NC(=O)/C=C\c2ccc3c(c2)OCO3)C(=O)Nc2ccc3c(c2)OCO3)cc1 (stereo not drawn)	-13	62%	54	-13	4.6
COC(=O)CCCNc1ncccc1[N+](=O)[O-]	nt	-9%	-4	1	0.0
CCN(C(=O)CN1CCN(c2cccc(C(F)(F)F)c2)CC1)c1c(N)n(Cc2ccccc2)c(=O)[nH]c1=O	nt	3%	-3	1	5.3
CCc1nn(CC(=O)NCCCN(CC)CC)c(=O)c2cc3sc(C)cc3n12	nt	-4%	-13	nt	-0.8
CCn1c(SCC(=O)Nc2ncc(C(F)(F)F)cc2Cl)nnc1-c1ccccc1	-41	21%	7	-2	-1.3
